Source: PubChem
CtBP-E1A inh: CtBP/E1A binding inhibition; hit rate 0.49% among 340,000; activity change, % (no concentration beside the values); AlphaScreen GST-E1A/His-CtBP binding, 1536-well; active compounds read low; control for the full effect not named in the record; AID 651724; in the data active means activity change below about -65%; inconclusive means about -30% to -65%; inactive means above about -30%; note: % is set by controls: 0 for no effect and ±100 for the full control effect
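Steps: dispense buffer (Tris pH 8.0, NaCl 300 mM, TCEP 1 mM, BSA, Tween 20); add 5X protein mix (GST-E1A, His-CtBP, 125 nM each); pin 23 nL compound; 2 h at 37 °C, dark; add 5X beads (50 ug/mL); 1 h; read.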
TRPV1 potentiator: potentiators of human vanilloid receptor 1 (TRPV1); Q8NER1; TRPV1-expressing cells, Fluo-8 calcium influx, capsaicin EC20 potentiation; host cell line not named in the record; control for the full effect not named in the record; potentiation, % at 8.33 µM; hit rate 0.02% among 320,000; AID 540277; active means potentiation above 80%; inconclusive means 30% to 80%; inactive means below 30%; note: 0% is about no effect
Target sequence (Q8NER1 whole entry, looked up): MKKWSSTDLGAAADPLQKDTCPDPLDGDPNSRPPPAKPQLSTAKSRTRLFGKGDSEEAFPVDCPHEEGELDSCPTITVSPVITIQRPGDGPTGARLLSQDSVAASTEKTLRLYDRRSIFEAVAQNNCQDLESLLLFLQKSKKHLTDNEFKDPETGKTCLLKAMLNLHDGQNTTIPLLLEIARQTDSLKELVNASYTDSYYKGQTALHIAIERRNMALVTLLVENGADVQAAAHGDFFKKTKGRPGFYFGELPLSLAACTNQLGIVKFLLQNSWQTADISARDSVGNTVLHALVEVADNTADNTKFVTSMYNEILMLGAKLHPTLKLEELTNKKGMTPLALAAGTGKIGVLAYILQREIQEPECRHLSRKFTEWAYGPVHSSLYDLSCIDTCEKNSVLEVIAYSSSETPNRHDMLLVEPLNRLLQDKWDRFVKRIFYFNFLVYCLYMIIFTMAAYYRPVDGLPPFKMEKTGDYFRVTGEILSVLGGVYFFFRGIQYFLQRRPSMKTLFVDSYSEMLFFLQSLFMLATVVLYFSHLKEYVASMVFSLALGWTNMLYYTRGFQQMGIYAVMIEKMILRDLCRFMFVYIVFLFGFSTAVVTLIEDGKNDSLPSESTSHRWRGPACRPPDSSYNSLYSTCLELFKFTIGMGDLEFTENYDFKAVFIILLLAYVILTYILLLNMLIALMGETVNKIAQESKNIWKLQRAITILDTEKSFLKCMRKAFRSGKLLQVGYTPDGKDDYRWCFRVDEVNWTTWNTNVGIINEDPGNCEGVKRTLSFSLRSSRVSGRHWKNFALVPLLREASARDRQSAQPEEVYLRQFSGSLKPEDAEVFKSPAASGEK
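Fluo-8 calcium influx in TRPV1-expressing cells, kinetic read (ex 480/em 520 nm). Compound added and read 3 min for agonist activity, followed by capsaicin at EC20 final and 2 min further read for enhancement.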
Menin MLL FP FL: inhibitors of human menin-MLL interaction, wild-type MLL peptide. Fluorescence polarization, fluorescein-MLL peptide displacement from menin. 290,000 tested, under 10 active. FP activity change, % at 61.4 µM. AID 1766; inconclusive = falling polarisation curve, or a change in total fluorescence; inactive = total fluorescence flat and polarisation flat or rising; no compound was filed as active; the % refers to the polarisation; negative = inhibition;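 note: % of control where 0% means no effect; inhibitors lower the polarisation; unlabelled MLL peptide was the positive control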
gsp antag: antagonizes gsp, the McCune-Albright syndrome mutation | AID 624288 | hit rate 0.4% among 340,000 | gsp-mutant cells, cAMP HTRF, 30 min; control for the full effect not named in the record | Potency, µM (series often up to 76.9 µM), without a hit: top-dose activity change, negative = inhibition, usual class: inhibitors; active = falling curve of any shape with a large fitted effect; inconclusive = falling curve, mostly with a smaller effect; inactive = flat or rising curve; cell line not stated here;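 note: intracellular cAMP measured with PDE inhibitor Ro 20-1724 present during compound exposure; potency is the fitted concentration of half-maximal effect; % is set by controls: 0 for no effect and ±100 for the full control effect; nearly all actives have a fitted effect of over 65% in size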
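HTRF cAMP measurement after 30 min RT detection following 30 min, 37C compound treatment alongside […] (added as 300 uM solution) in G418-selected cells seeded at 2000/well and grown 16–24 h.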
Sfp PPTase inh: blocks B. subtilis Sfp PPTase activity; Q9F4F7; Biochemical Sfp PPTase activity, qHTS; Potency, µM, for the others: max response, negative = inhibition, actives largely listed as inhibitors; hit rate 3.5% among 310,000; AID 1490; active = well fitted inhibition curve with a large enough effect; inconclusive = small, poorly fitted or top-dose-only effect, or another doubt; inactive = no such curve, though single readings can be large or run the other way;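 note: the enzyme is Sfp with the accession as filed and its product quenches rhodamine fluorescence; potency is the fitted concentration of half-maximal effect; 0% = enzyme reaction without inhibitor and -100% = no enzyme wells; top concentration of the series not given in the record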
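Reaction rates are the 30-min fluorescence difference (ex 525, em 598 nm) in wells containing 15 nM Sfp, 5 uM rhodamine-CoA and 12.5 uM BHQ-2-YbbR at pH 7.6 with 10 mM MgCl2.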
ClpP mod: qHTS Assay for Activators of ClpP; ATP-dependent Clp protease proteolytic subunit (Bacillus subtilis (strain 168)), P80244; purified B. subtilis ClpP, FRET peptide cleavage, 20 min; Potency, µM (series often up to 57.5 µM), without a hit: top-dose activity change, negative = active; hit rate 1.9% among 340,000; AID 651965, 2013; active = well fitted falling curve with a large enough effect; inconclusive = small, poorly fitted or top-dose-only effect; inactive = no such curve, though single readings can be large or run the other way; note: potency is the fitted concentration of half-maximal effect; the source files actives as falling curves though it sought activators and does not explain the sign; nearly all actives have a fitted effect of over 65% in size; many hits overshoot -100%
Target sequence (P80244 whole entry, looked up): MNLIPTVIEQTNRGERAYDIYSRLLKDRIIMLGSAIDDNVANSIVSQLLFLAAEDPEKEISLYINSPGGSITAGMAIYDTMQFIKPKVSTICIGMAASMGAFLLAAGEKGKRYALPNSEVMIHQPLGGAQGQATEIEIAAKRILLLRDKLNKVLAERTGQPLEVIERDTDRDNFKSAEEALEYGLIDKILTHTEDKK
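Purified B. subtilis ClpP, 10 microg/mL final in Tris/HCl pH8 with KCl, BSA, glycerol and Tween-20, cleaved an Abz/nitrotyrosine-quenched decapeptide. Fluorescence (ex 320, em 430) was read at 0 and 20 min at room temperature. Delta was normalized to 5.8 microM ADEP and DMSO/no-enzyme controls.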
gsp ag: gsp mutant agonism. gsp mutant cells, cAMP HTRF, 30 min; control for the full effect not named in the record. Potency, µM (doses to about 76.9 µM), for inactives: at the top dose activation (cAMP increase), usual class: activators. hit rate 0.13% among 340,000; active = well fitted activation curve with a large enough effect; inconclusive = small, poorly fitted or top-dose-only effect, or another doubt; inactive = no such curve, though single readings can be large or run the other way; cell line not stated here;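 note: phosphodiesterase inhibitor Ro 20-1724 added with compounds to block cAMP breakdown; potency is the fitted concentration of half-maximal effect; nearly all actives have a fitted effect of over 60% in size; about a fifth of the inactives were tested at one dose only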
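Cells stably selected in G418 were plated at 2000/well, grown 16-24 hr, then given compounds in DMSO with the PDE inhibitor […] (300 uM solution added) for 30 min at 37C; cAMP was read by HTRF.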
An asterisk follows results filed as active; ? = inconclusive; · = no result given; & = joins results of further samples; [ ] = another dose, or the depositor's remark.

SMILES | CtBP-E1A inh | TRPV1 potentiator | Menin MLL FP FL | gsp antag | Sfp PPTase inh | ClpP mod | gsp ag
COc1ccc(-c2ccccc2NC(=O)C2CCCN(Cc3ccc(C)o3)C2)cc1 (stereo not given) | -12 | -15 | · | -1% | -9% | -10% | 9%
O=C(Nc1nc(-c2ccc([N+](=O)[O-])cc2)cs1)C1=COCCO1 | 4 | · | · | · | · | -0.1% | -52%[inhibitor]
COc1ccc(S(=O)(=O)N(C)CC(=O)N2CCN(c3ccccc3)CC2)cc1 | -13 | 9 | -5.5 | 14% | 20% | · | -9%[15.4 µM]
Cc1ccc(-n2c(C)cc(C(=O)Cn3nc(C(=O)O)c4ccccc4c3=O)c2C)cc1 | ? | -11 | -1.0 | -5% | -3% | · | 8%[15.4 µM]
CCOC(=O)c1c(NC(C)=O)sc2c1CCCNC2=O | -17 | 19 | 1.0 | -6% | 14% | -6.4% | ?
CC(C)Oc1cccc(C(=O)N/N=C/c2ccoc2)c1 | -1 | -10 | · | 3% | 4% | -0.9% | -10%
O=S(=O)(CC(CN1CCCC1)N1CCCC1)c1ccc2ccccc2c1 (stereo not given) | -4 | -3 | 11 | 5% | -7% | 0.3% | ?
O=C(CCc1ccccc1)Nc1ccc(S(=O)(=O)N2CCCC2)cc1 | 3 | -11 | 2.3 | 8% | -8% | 0.0% | -21%
COc1ccc(-c2cc(C(=O)Nc3ccc(Br)cc3)no2)cc1 | 5 | 12 | 1.8 | 13% | -7% | -0.7% | -8%[15.4 µM]
O=C(NCC1CC1)c1onc(CSc2ccc(F)cc2)c1C(=O)NCC1CC1 | · | 15 | · | -11% | · | -0.9% | -12%
CCN(CC)c1ccc(S(=O)(=O)N2CCOCC2)cc1NC(=O)CSc1nncs1 | -5 | -4 | · | 8% | · | 0.5% | 12%
CC(=O)c1ccc(NC(=O)CSc2nc(C)cc(C)c2C(N)=O)cc1 | 3 | -2 | 43[activator] | -9% | 30% | · | ?
Nc1ccc(N(c2ccccc2)c2ccc(N)cc2)cc1 | -18 | 13 | -8.6 | 6% | -13% | 35µM* | -18%
O=C(NC(=O)c1ccncc1)NC(c1ccccc1)c1ccccc1 | 0 | -14 | -3.0 | 5% | 16% | 1.1% | -6%
C[C@H](NC(=O)C1(c2ccccc2)CCN(C(=O)[C@H]2CSCN2C(=O)OC(C)(C)C)CC1)C(=O)O | 5 | -5&2 | 1.9&2.2 | 13% | 8%&21% | 0.7% | ?
Cc1ccccc1Oc1ncnc(N)c1[N+](=O)[O-] | -2 | 12 | 0.4 | -10% | 12% | -1.4% | -11%[15.4 µM]
CC(CC(=O)Nc1ccccc1)n1ccnc1 (stereo not given) | 12 | 2 | 0.9 | 17% | 17% | 1.3% | -33%
O=C1CN(S(=O)(=O)c2ccc(Cl)cc2)CC(=O)N1CCc1ccccc1 | -2 | 5 | 1.2 | 4% | 25% | 1.2% | ?
CCCN(C(=O)c1cc2c(s1)CCC2)c1c(N)n(Cc2ccccc2)c(=O)[nH]c1=O | -14 | 11 | 1.6 | 4% | -8% | -9.1% | -6%
O=C(CN1CCN(c2ccc(F)cc2)CC1)NC(=O)NCc1ccco1 | -6 | 3 | -5.6 | · | 13% | · | -3%[15.4 µM]
CC1CCCCN1CCCNC(=O)c1ccc(Br)cc1 (stereo not given) | -5 | 1 | 6.3 | 9% | 8% | 0.1% | -1%[15.4 µM]
CCOc1cc(CNCCc2ccc(S(N)(=O)=O)cc2)ccc1OCc1ccc(Cl)cc1 | -1 | -10 | 1.6 | -1% | 8.9µM* | -16% | 2%
CC(=O)c1ccc(Oc2cnccn2)cc1 | 5 | 2 | -0.5 | 8% | -2% | · | 6%[15.4 µM]
COc1cc(S(=O)(=O)NCc2ccc3c(c2)OCO3)ccc1F | · | -6 | -2.0 | -3% | 10% | 1.1% | -3%

Record cards (already shown).
`O=C1CN(S(=O)(=O)c2ccc(Cl)cc2)CC(=O)N1CCc1ccccc1` reads CtBP-E1A inh = -2; TRPV1 potentiator = 5; Menin MLL FP FL = 1.2; gsp antag = 4%; Sfp PPTase inh = 25%; ClpP mod = 1.2%; gsp ag = ?
`CC(CC(=O)Nc1ccccc1)n1ccnc1` (stereo not given) reads CtBP-E1A inh = 12; TRPV1 potentiator = 2; Menin MLL FP FL = 0.9; gsp antag = 17%; Sfp PPTase inh = 17%; ClpP mod = 1.3%; gsp ag = -33%

Next section.
SMILES | CtBP-E1A inh | TRPV1 potentiator | Menin MLL FP FL | gsp antag | Sfp PPTase inh | ClpP mod | gsp ag
O=C(O)[C@H]1CCCC[C@H]1C(=O)NCCc1ccccc1 | 18 | -20 | -0.2 | 13% | -5% | 3.8% | 36%
Cn1c(SCc2cc([N+](=O)[O-])cc3c2OCOC3)nnc1-c1ccccn1 | -1 | -8 | -1.2 | 4% | 14% | · | -1%
COc1ccc(N(C(=O)COc2ccccc2)C2C=CS(=O)(=O)C2)c(OC)c1 (stereo not given) | -5 | 0 | 0.8 | -4% | 9% | 0.3% | 9%
CCOCCCNC(=O)CCCC1=NS(=O)(=O)c2ccccc2N1 | 10 | 9 | 6.4 | 2% | 3% | -0.2% | 0%[15.4 µM]
CCCOc1ccc(/C=C2/C(=O)ON=C2C)cc1Cl | 15 | -5 | 2.6 | -4% | 50µM* | -0.6% | 21%
C=C(C)C(=O)Oc1ccc(N=Nc2ccc(C)cc2)ccc1=O | -11 | · | · | -10% | · | -1.2% | -2%[15.4 µM]
C(=C\c1ccccn1)/c1ccccn1 | 0 | -10 | -20 | -12% | 6% | · | -2%[15.4 µM]
N#CCCN(C1CCCCC1)S(=O)(=O)CCOc1ccccc1 | 1 | -6 | 0.6 | 2% | 13% | 1.3% | 12%
COc1ccc(NC(=O)C2CCCN(S(=O)(=O)c3cccc4cccnc34)C2)cc1OC (stereo not given) | 0 | -3 | 0.3 | -15% | 7% | -1.9% | -7%
CC(=O)Nc1ccc(C(=O)N/N=C/c2cc(Br)cc(Br)c2O)cc1 | ? | 15 | ? | -21% | 17% | · | 15%[15.4 µM]
O=[N+]([O-])c1ccc(NC(=S)N2CCN(c3ccccc3)CC2)cc1 | 0 | -29 | -1.3 | 5% | -25% | -5.3% | 1%[15.4 µM]
CCc1cccc(C)c1NC(=S)N(CCOC)C(C)c1ccco1 (stereo not given) | 0 | -5 | 5.2 | 7% | 13% | · | -10%[15.4 µM]
Cc1ccc(NC(=S)Nc2ccc3cn[nH]c3c2)cc1C | -2 | -21 | 6.4 | 2% | -12% | -9.8% | 6%
O=C(CN(CCc1ccccc1)S(=O)(=O)c1ccc(Br)cc1)N/N=C/c1ccc2c(c1)OCO2 | -14 | 1 | 5.3 | ? | ? | -6.0% | 4%
CCOc1ccc(C2c3cc(OC)c(OC)cc3CC(=O)N2c2ccc(OC)cc2)cc1 (stereo not given) | -7 | -13 | -1.6 | -8% | -11% | 0.0% | -19%
O=C(Nc1c2c(nn1-c1ccccc1)CS(=O)C2)c1ccc(Br)o1 (stereo not given) | 6 | 1 | · | -6% | 16% | 3.6% | 6%[15.4 µM]
CCCCn1c(N)c(N(CCOC)C(=O)c2ccc(S(=O)(=O)N3CCCCC3)cc2)c(=O)[nH]c1=O | 8 | -1 | · | 4% | · | -14% | -24%
COc1ccc(C(=O)c2c(-c3ccsc3)oc3ccc(-c4ccc(OC)cc4)cc23)cc1 | · | · | · | 3% | · | -27% | 15%
COc1ccc(C2(C)NC(=O)N(CC(=O)NC(C)c3ccc(CC(C)C)cc3)C2=O)cc1 (stereo not given) | · | -9 | 5.6 | 4% | 3% | 1.1% | -11%
Cc1nc(NC(=O)CCc2ccccc2)sc1C | 0 | ? | 5.6 | -2% | 40µM* | 1.1% | -2%[15.4 µM]
CCCCOc1ccc(C(=O)Nc2ccc(C)cc2[N+](=O)[O-])cc1 | -12 | 15 | 1.9 | 9% | -2% | -5.3% | -27%
O=C(Cn1ncc2c([nH]c3ccccc32)c1=O)NCC1CCN(Cc2ccccc2F)CC1 | 3 | -6 | -2.0 | 2% | -8% | -11% | -11%
COc1ccc(C(=O)N2CCn3c2nc2ccccc23)cc1 | 7 | 6 | 1.3 | -8% | 13% | · | 4%[15.4 µM]
CC(C)c1nc2cc3ccccc3cc2[nH]1 | -4 | -17 | -0.7 | 3% | 2% | -26% | 3%
Cc1ccc(S(=O)(=O)n2cnc3cc([N+](=O)[O-])ccc32)c(C)c1C | 3 | -2 | 3.5 | -4% | -7% | -1.2% | 2%
COc1cc(S(=O)(=O)N(Cc2ccccc2)Cc2ccccn2)ccc1-n1cnnn1 | 2 | -12 | 0.0 | -8% | 4% | 0.3% | 8%
CC(C)(O[C@@H]1O[C@H](CO)[C@@H](O)[C@H](O)[C@H]1O)[C@H]1Cc2cc3ccc(=O)oc3cc2O1 | 1 | -7 | 2.6 | 5% | -7% | 4.1% | ·
NC(=O)C1Cc2ccccc2CN1C(=O)c1cccc(Oc2ccccc2)c1 (stereo not given) | 1 | 16 | -1.8 | 1% | -2% | · | 10%[15.4 µM]
CCN1CCN(Cc2nc3c(c(=O)n(C)c(=O)n3C)n2CC(=O)c2ccccc2)CC1 | 7 | ? | -0.4 | 5% | 17% | -0.8% | -26%
O=C(CC1SC2=NCCN2C1=O)Nc1ccc(Br)cc1 (stereo not given) | 1 | 5 | 1.0 | 8% | -5% | 0.6% | 20%
COc1ccc(NC(=O)CCC(=O)OCc2ccc([N+](=O)[O-])cc2)cc1 | -18 | -2 | -0.8 | -1% | 5% | -1.0% | ?

Looked up by compound from the list above:
SMILES | CtBP-E1A inh | TRPV1 potentiator | Menin MLL FP FL | gsp antag | Sfp PPTase inh | ClpP mod | gsp ag
CC(C)(O[C@@H]1O[C@H](CO)[C@@H](O)[C@H](O)[C@H]1O)[C@H]1Cc2cc3ccc(=O)oc3cc2O1 | 1 | -7 | 2.6 | 5% | -7% | 4.1% | ·
COc1ccc(NC(=O)CCC(=O)OCc2ccc([N+](=O)[O-])cc2)cc1 | -18 | -2 | -0.8 | -1% | 5% | -1.0% | ?
Cc1ccc(S(=O)(=O)n2cnc3cc([N+](=O)[O-])ccc32)c(C)c1C | 3 | -2 | 3.5 | -4% | -7% | -1.2% | 2%
NC(=O)C1Cc2ccccc2CN1C(=O)c1cccc(Oc2ccccc2)c1 (stereo not given) | 1 | 16 | -1.8 | 1% | -2% | · | 10%[15.4 µM]
